Compound activity (PubChem BioAssay)
Calb FLC – C. albicans growth inhibition with fluconazole, primary screen, CaCi-2 strain, Alamar Blue fluorescence; growth inhibition, % (concentration not given with the values); actives 0.57% (n = 300,000); C. albicans CaCi-2 (fluconazole-resistant clinical isolate) + fluconazole, 48 h;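 active means most replicates above 75%; inconclusive means exactly half above 75%; inactive means most below 75%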;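 further: all wells also contain fluconazole at 8 µg/ml as a sub-toxic cotreatment; 0% = median of DMSO wells and 100% = median of geldanamycin control wells; wells of about 8 µL received 7.5 nL stock; the first replicate is given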
Vif A3G – inhibitors of Vif binding to APOBEC3G peptide, primary screen, biochemical, TR-FRET, GST-Vif 1-94, biotin-A3G peptide, dose response retest (AID 1117319). actives 0.57% (n = 260,000). Virion infectivity factor (Human immunodeficiency virus type 1 group M subtype B (isolate …. TR-FRET GST-Vif / biotin-A3G peptide binding; higher % means a stronger effect; test concentration not given here; strong numbers were not always called active. one-dose inhibition, %; IC50 in µM for titrated hits;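 active means above the screen mean plus three standard deviations and confirmed in dose response; inconclusive means results disagree or hit not tested in dose response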;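 further: Vif residues 1-94 fused to GST binding biotinylated APOBEC3G peptide 110-148; 0% = full assay without inhibitor and 100% = GST in place of GST-Vif; retest series ran down from 100 µM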
RanGTP-Impb inh – inhibitors of RanGTP-importin-beta interaction, primary screen, biochemical, FRET, CFP-Ran, YFP-importin-beta, homogeneous. actives 1.1% (n = 300,000). cell-free CFP-Ran/YFP-importin-beta FRET ratio. Ran GTPase (GTP-bound) - importin-beta complex. AID 2216, 2009. inhibition, % (concentration not given with the values);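 active means most replicates above 15%; inconclusive means exactly half above 15%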;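 further: 0% = DMSO wells and 100% = Ran loaded with GDP instead of GTP; wells of about 40 µL received 100 nL stock; the first replicate is given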
LANA-H2A inh – blockers of LANA interaction with H2A/H2B – biochemical, FP readout, HTS, primary screen. Protein LANA1 (Human herpesvirus 8 type P (isolate GK18)), Q9QR71. cell-free LANA-H2A/H2B peptide, fluorescence polarization. inhibition, % (no concentration beside the values). actives 0.6% (n = 320,000). AID 2629, 2010; in the data active means inhibition mostly above about 10%, no sharp cut-off; inactive means mostly below about 6.7%;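 further: stock transfer was 7.5 nL into about 10 µL; 0% = median of vehicle wells and 100% = median of positive control wells; one replicate is shown; the record names a cut of 25% in any replicate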
HNF4A DNA FP – change in binding of human HNF4A to DNA, primary screen, biochemical, fluorescence polarization, FITC-DNA | activity change, % at 10 µM | actives 0.3% (n = 360,000) | Hepatocyte nuclear factor 4-alpha (Homo sapiens), P41235 | 1 h; in the data active means activity change above about 30%, passing the limit was not always enough;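 further: controls were the assay level and a saturating level of protein; the project sought stronger binding though the title names inhibitors; some compounds called inactive have numbers as strong as hits; positive values seem to mean higher polarization but the record does not say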
Target sequence (P41235 whole entry, looked up): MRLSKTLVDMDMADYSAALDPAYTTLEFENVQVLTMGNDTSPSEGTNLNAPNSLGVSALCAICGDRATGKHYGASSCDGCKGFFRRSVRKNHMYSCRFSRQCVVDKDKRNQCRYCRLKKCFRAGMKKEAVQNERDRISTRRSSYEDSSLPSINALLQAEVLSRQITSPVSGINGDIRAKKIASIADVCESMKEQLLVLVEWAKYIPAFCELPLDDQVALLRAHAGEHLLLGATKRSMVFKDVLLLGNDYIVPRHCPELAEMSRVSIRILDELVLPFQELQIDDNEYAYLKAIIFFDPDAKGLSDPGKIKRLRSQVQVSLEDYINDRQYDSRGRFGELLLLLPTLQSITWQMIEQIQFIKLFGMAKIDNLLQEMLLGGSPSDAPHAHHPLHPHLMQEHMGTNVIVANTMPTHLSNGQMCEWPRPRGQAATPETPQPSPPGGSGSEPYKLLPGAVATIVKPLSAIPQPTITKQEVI
ALR H2O2 inh – inhibitors of human ALR sulfhydryl oxidase, primary screen, biochemical, H2O2 detection, HRP-luminol luminescence, single point; FAD-linked sulfhydryl oxidase ALR (Homo sapiens), P55789; purified ALR, DTT oxidation; inhibition, % (no concentration beside the values); actives 3.8% (n = 290,000); AID 485317, 2010;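 active means mean and each replicate at 75% or more; inconclusive means only one of the two met; inactive means neither met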;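 further: stock transfer was 7.5 nL into about 7.5 µL; 0% = neutral wells and 100% = wells with inactivated enzyme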
Target sequence (P55789 whole entry, looked up): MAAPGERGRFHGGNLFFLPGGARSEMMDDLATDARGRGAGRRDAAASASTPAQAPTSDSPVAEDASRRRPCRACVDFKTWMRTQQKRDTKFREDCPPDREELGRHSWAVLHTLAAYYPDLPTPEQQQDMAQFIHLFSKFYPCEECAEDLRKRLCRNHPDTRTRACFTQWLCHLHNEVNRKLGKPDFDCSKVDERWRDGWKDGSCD
Beta2AR agonist – beta2AR agonists driving receptor internalization, primary screen, cell-based, FAP fluorogen, flow cytometry | Am2.2-beta2AR cells; reference of the scale not given here | response, % (test concentration not listed) | actives 0.43% (n = 340,000) | AID 504454, 2011 | Beta-2 adrenergic receptor (Homo sapiens), P07550;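 active means response above a set limit, near 3 SD of response in nonfluorescent compounds, cut at about 42% in these data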;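 further: stock transfer was 100 nL into about 11 µL; a reference agonist was the positive control; negative values mostly stem from fluorescent compounds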
Target sequence (P07550 whole entry, looked up): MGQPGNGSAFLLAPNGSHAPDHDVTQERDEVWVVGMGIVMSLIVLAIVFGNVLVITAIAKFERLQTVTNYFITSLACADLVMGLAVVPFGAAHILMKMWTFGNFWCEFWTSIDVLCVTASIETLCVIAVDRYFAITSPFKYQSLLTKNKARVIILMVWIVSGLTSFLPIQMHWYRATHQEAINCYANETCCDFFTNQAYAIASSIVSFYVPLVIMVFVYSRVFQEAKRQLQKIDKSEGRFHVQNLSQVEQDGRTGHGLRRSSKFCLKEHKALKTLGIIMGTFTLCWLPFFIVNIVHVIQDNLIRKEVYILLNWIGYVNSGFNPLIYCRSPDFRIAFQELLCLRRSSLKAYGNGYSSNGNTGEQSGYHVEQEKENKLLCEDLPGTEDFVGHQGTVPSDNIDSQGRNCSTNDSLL
* = called active by the depositor; ? = inconclusive; . = not tested or not shown; & = joins results of further samples. Rows were taken by chance. Share with any hit: about 6.3%.

SMILES	Calb FLC	Vif A3G	RanGTP-Impb inh	LANA-H2A inh	HNF4A DNA FP	ALR H2O2 inh	Beta2AR agonist
CCc1nnc(NC(=O)c2cccc(S(=O)(=O)N3CCN(c4ccccc4)CC3)c2)s1	-7	10%	-5.4	-1.1	-0.9	-2	0
Cc1ccc(C2=N/C(=C\c3ccc(OS(=O)(=O)c4ccc(C)cc4)cc3)C(=O)O2)cc1	-4	-11%	?	-5.9	-6.3	4	0
Cc1nc(-c2ccc(C(=O)N3CCOCC3)cc2)cs1	1	4%	?	1.5	-0.7	-11	-3
Cc1cc(OCC(O)CN2CCN(C)CC2)ccc1C(C)C (centres undefined)	-2	3%&-2%	-0.7	-1.2	-0.2&-1.0	-8	0&2
CN(C)/C=C1\C(=O)Oc2ccccc2C1=O	39	.	3.1	-3.2	-1.2	4	-1
Cc1cc(C)c2nc(C)cc(N/N=C/c3ccc(O)cc3)c2c1	-15	-9%	1.0	-5.4	2.4	99*	-1
COC(=O)c1ccc(COC(=O)c2nn(C)c(=O)c3ccccc23)cc1	26	3%	2.2	-0.8	-4.3	-7	2
O=C(C1=C[C@H](c2ccccc2)C[C@H](OCc2ccc(CO)cc2)O1)N1CCN(Cc2ccccc2)CC1	-5	1%	2.1	2.5	-0.2	-20	1
NC(=O)C1=C[C@H](c2ccc(C(F)(F)F)cc2)C[C@H](OCCCCO)O1	5	.	-1.8	-6.4	-0.7	-18	0
Brc1cccc(OCCCCN2CCCCC2)c1	-43	-4%	-1.8	3.3	1.9	-19	4
Cc1ccc(-c2nc(SCC(=O)NCC3CCCO3)c(-c3ccc(Cl)cc3)[nH]2)cc1 (centres undefined)	-3	.	-2.2	-0.4	1.4	14	2
CCOC(=O)N1CCN(C(=O)c2ccc3c(c2)N(Cc2cccc(Cl)c2)C(=O)c2ccccc2S3=O)CC1 (centres undefined)	12	3%	2.2	-8.3	1.3	-3	-8
COc1ccc(CC(=O)N(C)Cc2cccc(OC)c2OC)cc1S(=O)(=O)N1CCOCC1	-15	-1%	0.4	5.0	3.6	1	1
CCn1c(C(=O)N2CCCC(C(=O)NCCc3ccc(C)cc3)C2)cc2sccc21 (centres undefined)	.	71%	.	-19	0.3	-3	13
COCCN(C(=O)COC(=O)c1cccnc1Cl)c1c(N)n(Cc2ccccc2)c(=O)[nH]c1=O	1	-5%	0.5	.	1.8	.	-2
O=C(Nc1ccc(N2CCOCC2)c(Cl)c1)c1ccccc1F	-6	-4%	3.1	-1.0	-2.3	-2	2
COCCN(C(=O)COC(=O)CCS(=O)(=O)c1ccccc1)c1c(N)n(Cc2ccccc2)c(=O)[nH]c1=O	10	1%	2.9	-1.4	-0.2	1	0
Cc1ccc(S(=O)(=O)N2CCCCC2C(=O)N(C)c2ccccc2)cc1 (centres undefined)	-4	12%	3.5	-4.7	1.4	4	7
CN1C(=O)/C(=C\c2ccc(N(C)C)cc2)OC1=S	6	.	-98	-9.0	81	2	-1
C[C@@H]1CC[C@]2(O[C@H](CCO)C[C@@H](O)[C@@H]2O)O1	-9	.	-1.4	0.1	-0.4	-5	6
COc1ccc(NS(=O)(=O)c2ccc(C)c(C(=O)N3CCN(Cc4cc(OC)ccc4OC)CC3)c2)cc1	.	2%	.	.	2.9	.	3
O=C(Oc1ccccc1C(=O)N1CCOCC1)c1ccccc1	-16	?	0.5	-0.9	2.9	3	-2
CSc1nc2cc(Oc3cccc(Cl)c3Cl)c(Cl)cc2[nH]1	.	3%	1.8	3.1	-2.3	3	30
COc1ccc(-c2cc3nc4n(c(=O)c3s2)CCCCC4)cc1	4	-11%	4.9	4.0	2.1	-6	2
O=C(c1ccc(COc2ccccc2Cl)o1)N1N=C(C(F)F)CC1(O)C(F)F (centres undefined)	-23	24%	0.6	2.7	1.7	-3	3
CC(=O)Nc1ccc(NC(=O)/C=C/c2ccc3c(c2)OCO3)cc1	1	4%	0.0	2.0	1.0	-1	-6
O=C(NCC1(c2ccccc2)CCCC1)c1ccco1	13	-5%	-0.1	-0.1	1.0	0	-13
CC(C)CCN1CCN(Cc2ccon2)CC1CCO (centres undefined)	-4	1%	4.2	6.2	-3.4	-12	0
COc1cccc(NC(=O)CSc2nnc(-c3ccoc3C)n2C)c1	-5	-3%	-2.5	-4.2	-3.0	-1	14
CSc1c(-c2ccccc2)nc2ccccc2c1C(=O)O	20	-2%	1.5	0.8	-0.8	-17	5
CCCCN(C(=O)NC(=O)Nc1nc2ccc(OC)cc2s1)S(C)(=O)=O	6	8%	-0.2	-4.8	2.4	-13	-2
O=C(Nc1cccc(C(=O)N2CCN(c3ccc(F)cc3)CC2)c1)c1ccccc1	7	.	-3.5	-1.0	-0.1	1	-6
CC(C(=O)N1CCOCC1)N1C(=O)C2C3CC(C(Br)C3Br)C2C1=O (centres undefined)	-17	-8%	2.0	-1.5	-3.5	-18	2
CSc1ccccc1C(=O)OCC(=O)NC1CCS(=O)(=O)C1 (centres undefined)	-4	18%	-1.7	1.6	0.7	-1	1
Cc1ccccc1-c1nc(CN2CCCC(C(=O)NCc3cccnc3)C2)c(C)o1 (centres undefined)	-16	-7%&27%	-1.6	-1.9	-0.6	-15	1
CCc1nnc(NC(=O)c2cnccn2)s1	6	?	1.5	-8.5	-0.9	-15	-1
O=c1[nH]c2ccc(NC(=S)Nc3ccc(Cl)cc3)cc2[nH]1	2	-1%	?	-1.0	2.4	-4	6
Cn1nc([N+](=O)[O-])nc1Sc1ccc(C(C)(C)C)cc1	8	0%	-6.1	-3.0	-3.0	-42	1
COc1ccccc1NC(=O)c1cc2c(=O)n(C)c3ccccc3c2n1C	-9	15%	2.4	6.4	-0.8	-7	-5
Cc1ccc(NC(=O)c2ccc(F)c(S(=O)(=O)N3CCOCC3)c2)cc1F	0	10%	1.6	-0.3	-2.2	-4	14
Cc1nc2ccccc2c2oc(C(=O)NCCCN3CCCC(C)C3)cc12 (centres undefined)	1	-3%	11	3.9	-4.1	3	10
Cc1cc(N2C(=O)[C@@H]3[C@H](C2=O)[C@@H]2C[C@H]3C(Br)C2Br)no1 (some centres undefined)	-2	1%	-5.3	2.2	-0.9	-20	5
C/C(=N\n1nnnc1Nc1ccccc1)c1ccc(N)cc1	1	15%	-2.8	-1.0	.	14	.
Cc1ccc(C)c(NC(=O)CN(C)C(=O)c2cc(C3CC3)nn2-c2ccccc2)c1	.	.	.	-1.8	0.8	0	3
CC(C)(C)NC(=O)C(c1ccc(F)cc1)N(CC1CCCO1)C(=O)c1csnn1 (centres undefined)	-2	-6%	1.5	-3.3	1.1	.	-1

By substructure: the compounds so far containing bromine.
SMILES	Calb FLC	Vif A3G	RanGTP-Impb inh	LANA-H2A inh	HNF4A DNA FP	ALR H2O2 inh	Beta2AR agonist
Brc1cccc(OCCCCN2CCCCC2)c1	-43	-4%	-1.8	3.3	1.9	-19	4
CC(C(=O)N1CCOCC1)N1C(=O)C2C3CC(C(Br)C3Br)C2C1=O (centres undefined)	-17	-8%	2.0	-1.5	-3.5	-18	2
Cc1cc(N2C(=O)[C@@H]3[C@H](C2=O)[C@@H]2C[C@H]3C(Br)C2Br)no1 (some centres undefined)	-2	1%	-5.3	2.2	-0.9	-20	5

Continuation.
SMILES	Calb FLC	Vif A3G	RanGTP-Impb inh	LANA-H2A inh	HNF4A DNA FP	ALR H2O2 inh	Beta2AR agonist
C=CCn1cc([N+](=O)[O-])nc1C	-11	30%	3.0	3.9	0.1	-1	1
O=C1CSC(c2ccccc2)N1c1ccccc1F (centres undefined)	1	-1%	1.5	-13	4.2	5	-2
CCn1nnnc1SCC(=O)Nc1ccc(OC)cc1	24	9%	-0.2	-1.2	0.2	-8	2
O=C(c1cc([N+](=O)[O-])cc([N+](=O)[O-])c1)N(c1ccccn1)c1ccccn1	-8	.	1.2	0.3	-0.7	-38	5
O=C(CCn1cccc1)Nc1ccccc1F	-6	5%	0.0	-14	2.5	.	-3
Cc1ccc(/C=N/NC(=O)CSCc2ccc(Cl)cc2)cc1	-30	3%	-1.7	-4.7	1.8	-1	-3
Cc1coc2c(O)cc3c(c12)OC1(N2CCCCC2)C(=O)NCCCC31 (centres undefined)	.	?	.	-7.2	-8.3	7	20
O=C(c1ccc2snnc2c1)N1CCCCC1	-7	-1%	-0.4	-1.1	1.1	-1	5
CCN(CC)S(=O)(=O)c1ccc(Cl)c(NC(=O)c2ccccc2C)c1	4	3%	3.7	4.8	1.8	-2	-4
Cc1ccc2[nH]cc(CCNC(=O)c3cccs3)c2c1	3	3%	5.3	-0.8	1.8	97*	0
CCOc1cc(C(=O)N(C)c2ccccc2)cc(OCC)c1OCC	-6	25%	-2.9	-2.3	-3.2	-4	0
COc1cc(-c2nc(-c3ccc(NC(=O)c4ccc(Br)o4)cc3)no2)cc(OC)c1OC	20	-12%	?	-1.0	6.4	-10	13
Nc1ccc(C(=O)OCc2nc3ccccc3s2)cc1	-33	-3%	0.9	3.2	0.6	2	9
COC(=O)NNC1=CC(=O)CC(C)(C)C1	-10	.	2.3	-4.0	-2.7	5	-5
COc1ccc(OC2CCN(S(=O)(=O)c3ccc(C(C)=O)cc3)CC2)cc1	-3	1%	0.7	9.0	-0.7	2	-6
N/C(=N\OC(=O)c1cc(Br)ccc1Cl)c1ccccn1	?	4%	-0.9	1.6	-0.5	19	-19
CCc1ccc2c(c1)C(NC(C)=O)C(=O)N2CC (centres undefined)	3	2%	-0.6	-0.3	0.2	11	1
COc1ccccc1C(=O)NC(=O)COC(=O)Cc1ccccc1[N+](=O)[O-]	.	-8%	-3.7	2.1	3.2	-1	7
O=[N+]([O-])c1ccccc1/C=N/n1c(COc2ccccc2)n[nH]c1=S	5	-2%	5.2	-0.2	1.3	.	8
COC(=O)CNC(=O)/C=C/c1cc(Br)ccc1OC	20	11%	-2.8	4.8	-0.2	-9	1
O=[N+]([O-])c1ccc(SCCc2ccncc2)cc1	23&-10	?	4.0&3.4	-8.5&-1.9	5.3&-0.6	-9&28	-5&-17
Cc1ccc(NC(=O)C2(c3ccccc3)CCOCC2)c([N+](=O)[O-])c1	31	.	4.0	10	0.5	0	-5
CCOC(=O)/C=C1\SCC(=O)N1CC(=O)Nc1ccc(C(C)C)cc1	6	4%	2.0	-3.4	-3.1	-13	4
Cc1ccc(C(=O)NCCSc2ccccc2)cc1S(=O)(=O)Nc1ccccc1	-2	23%	1.1	-3.7	-0.1	-5	13
Cc1ccc(NS(=O)(=O)c2ccc(C(=O)NCCCN3CCCC3=O)cc2)cc1	.	-3%	1.3	-0.6	-0.9	0	3
CN(C)c1nc(SCCOC(=O)c2ccccc2)nc(N(C)C)n1	-2	20%	?	-15	0.9	-3	-11
CCCCN(CC)CCCNC(=O)c1cn(-c2ccc(OC)cc2)c(=O)c2ccccc12	2	0%	-7.2	5.1	1.0	-11	-11
Cc1ccc(N2C(=O)[C@@H]3C(C(=O)CCN4C(=O)c5ccccc5C4=O)=NN[C@@H]3C2=O)cc1	25	.	?	-3.3	-3.9	2	15
O=C(Nc1sc2c(c1C(=O)NCCCO)CCCC2)c1ccccc1	11	-6%	5.6	-2.1	3.5	-3	4
Cc1cc(NC(=O)CCC(=O)N(Cc2cccnc2)C(C(=O)NC(C)(C)C)c2ccccc2Cl)no1 (centres undefined)	-1	.	1.9	-6.8	1.7	-1	0
O=C1c2ccccc2C(=O)N1Cc1nc(-c2ccccn2)no1	2	11%	?	3.2	1.4	-3	-7
